Screens from PubChem.
Arbovirus inh: blocks arbovirus infection; actives 0.37% (n = 200,000); arbovirus infection cell-based antiviral screen; AID 1251; inhibition, % at 10 µM;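 active means inhibition from about 30%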;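 further: bluetongue infection of BSR cells; cell survival read as ATP light after 72 h; 0% = infected wells without compound and 100% = uninfected wells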
RecA splice inh: Mtb RecA intein splicing inhibition; inhibition, %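 (about 9 µM by stock and volumes)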; AID 2221; actives 0.75% (n = 290,000); cell-free RecA intein splicing, fluorescence; in the data active means inhibition above about 30%; inconclusive means no clear call, values can overlap the other calls;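 further: 0% = vehicle wells and 100% = reference inhibitor control wells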
Target sequence (P9WHJ3 whole entry, looked up, canonical isoform): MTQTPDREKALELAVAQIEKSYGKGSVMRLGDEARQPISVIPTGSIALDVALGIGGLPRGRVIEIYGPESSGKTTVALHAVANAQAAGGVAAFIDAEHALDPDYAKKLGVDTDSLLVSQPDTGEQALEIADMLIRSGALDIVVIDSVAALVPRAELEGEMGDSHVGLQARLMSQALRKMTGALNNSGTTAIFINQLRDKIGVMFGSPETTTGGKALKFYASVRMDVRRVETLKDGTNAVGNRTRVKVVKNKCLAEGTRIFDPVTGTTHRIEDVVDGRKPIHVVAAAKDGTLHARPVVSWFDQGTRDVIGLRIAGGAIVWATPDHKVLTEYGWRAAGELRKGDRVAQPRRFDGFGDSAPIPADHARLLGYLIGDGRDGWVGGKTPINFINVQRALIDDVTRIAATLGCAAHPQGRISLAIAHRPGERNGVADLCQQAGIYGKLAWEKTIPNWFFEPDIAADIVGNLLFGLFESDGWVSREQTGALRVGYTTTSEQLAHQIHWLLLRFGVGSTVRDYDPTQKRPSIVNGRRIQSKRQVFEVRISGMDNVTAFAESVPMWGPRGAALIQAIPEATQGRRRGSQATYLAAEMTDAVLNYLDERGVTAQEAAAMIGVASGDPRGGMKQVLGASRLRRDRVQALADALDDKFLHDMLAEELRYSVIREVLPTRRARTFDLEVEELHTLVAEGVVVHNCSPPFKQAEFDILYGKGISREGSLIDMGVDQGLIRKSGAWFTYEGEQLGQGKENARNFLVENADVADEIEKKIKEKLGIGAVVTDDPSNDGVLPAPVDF
YopH PTP inh: inhibitors of Yersinia enterocolitica YopH tyrosine phosphatase; fluorescence Ex485/Em525; inhibition, %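 (about 10 µM by stock and volumes)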; actives 0.16% (n = 140,000);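 active means inhibition of 50% or more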;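 further: controls were vehicle for no effect and minimum signal wells for full effect; inactives centre near -20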
Mtb bLac sens: beta-lactam sensitization of Mtb H37Rv. AID 434955. M. tuberculosis H37Rv growth with meropenem, percent inhibition; hits of this screen are not shown here. actives 0.27% (n = 330,000). inhibition, % at 25 µM;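 active means about 74% or more and at least 40 points above the plate without the antibiotic, then above 30% in a dose series; inconclusive means first-round hits that could not be retested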;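 further: growth measured after seven days incubation then overnight dye step; 0% = bacteria only wells and 100% = bacteria with antibiotic; twin plates without the antibiotic show which effects depend on it; some results filed as inactive read as strong as hits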
Mtb growth: M. tuberculosis H37Rv growth inhibitors, H37Rv strain (AID 1626) | M. tuberculosis H37Rv growth inhibition; higher % means a stronger effect | inhibition, % at 10 µM; hits with a dose series show IC50 in µM | actives 0.95% (n = 220,000);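 active means confirmed in a dose series; inconclusive means inhibition above 80% but not taken into the dose series; inactive means below 80% or under 30% at every dose of the series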;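 further: bacteria incubated seven days before Alamar blue readout; 0% = bacteria only wells and 100% = bacteria with antibiotic wells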
Arbovirus inh repeat: second read-out of Arbovirus inh, no call of its own (marks repeat the call); inhibition, %; measured here: 10K subset replicate screen; many hits read low in the repeat;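 first of two repeat runs on a subset; 0% = infected and 100% = uninfected wells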
The depositor's hits bear a star; ? = inconclusive; . = no result given. Only part of the results is shown (hit frequency here may not be typical).

SMILES	Arbovirus inh	RecA splice inh	YopH PTP inh	Mtb bLac sens	Mtb growth	others
CC(=O)c1ccccc1OC(=O)COc1ccc(Cl)cc1C	1	19	.	4	5%
CC(=O)Oc1ccc2ccccc2c1C(NC(=O)Cc1ccccc1)c1ccccc1 (configuration not stated)	-28	.	10	11	0%
O=C(NC(=S)Nc1cccc(NC(=S)NC(=O)c2ccco2)n1)c1ccco1	-1	-1.1	.	-2	1%
CC(C)CN1CCC(=O)N([C@H](CO)c2ccccc2)CC1	.	7.0	.	-5	.
COc1ccc(NC(=O)NS(=O)(=O)c2ccc(C)cc2)cn1	.	8.5	.	19	.
CCOc1cc2nc(-c3ccc(OC)c(OC)c3)nc(NCCCN3CCOCC3)c2cc1OC	17	2.3	-3	38	-7%
COc1ccccc1/C=C/C=N/NC(=O)c1ccc(=O)n(C)c1	-3	-1.1	-56	6	2%
N#CCC(=O)Nc1ccc(C(=O)OCC(=O)NC(=O)Cc2ccccc2)cc1	.	-0.4	.	-3	.
Cc1ccc(-n2ncc3c(NCc4ccccn4)ncnc32)c(C)c1	1	1.9	-40	24	-1%
CN1C(=O)C(C)(C)c2cc(S(=O)(=O)NCCc3ccc(Cl)cc3)ccc21	.	-0.7	.	?	.
C1=C(CCNc2ncnc3c2[nH]c2ccccc23)CCCC1	-47	.	-7	100	1.5µM*
O=C(Nc1ccccc1)/C(=C/c1ccc(O)cc1)NC(=O)c1ccco1	.	1.2	.	-10	.
O=C(NCCCNC(=O)c1ccco1)c1ccc(Cl)cc1	.	1.6	.	1	.
CCCCNC(=O)CN1CCN(Cc2ccc3cc(OC)ccc3c2)CC1	.	-0.8	.	0	.
Cc1cc(C)c2nc(C)cc(Nc3ccc(C(=O)N(C)C)cc3)c2c1	.	5.3	.	-7	-9%
Cc1c(CC(=O)O)c(=O)oc2cc(OCc3ccc(F)cc3F)ccc12	.	-0.6	.	0	.
COC(=O)c1ccc(CNC(=O)CSc2nnc(COc3ccccc3)n2C)o1	5	-0.3	-15	1	-12%
Cc1cnccc1CN(C)C(=O)C1CCC(=O)N(Cc2ccccc2F)C1 (configuration not stated)	.	-2.3	.	7	.
CCN(CC)S(=O)(=O)c1ccc(-c2nnc(SCC(=O)N3CCc4ccccc43)o2)cc1	.	4.7	.	0	-7%
Cc1ccccc1NC(=S)NC(C)CCc1ccccc1 (configuration not stated)	15	5.6	-6	1	14%
Cc1cccc(C)c1OCCN1C(=O)NC(C)(c2ccccc2)C1=O (configuration not stated)	8	2.2	.	1	-3%
O=C(NC(=S)NCc1cccnc1)c1ccccc1[N+](=O)[O-]	-4	4.7	-5	0	-6%
CC1=NNC(=O)C1CC(=O)N/N=C/C(C)=C/c1ccccc1 (configuration not stated)	1	6.2	.	0	4%
O=C(CC1Sc2ccccc2NC1=O)OCc1cc(=O)oc2cc(O)ccc12 (configuration not stated)	8	-16	-12	8	-5%
CCn1cc(C(=O)N2CCN(c3ccc(OC)cc3)CC2)c(=O)c2cc(S(=O)(=O)N3CCCCC3)ccc21	4	-4.8	.	-1	8%

Brought forward from above: five entries, then new ones.
SMILES	Arbovirus inh	RecA splice inh	YopH PTP inh	Mtb bLac sens	Mtb growth	others
Cc1cccc(C)c1OCCN1C(=O)NC(C)(c2ccccc2)C1=O (configuration not stated)	8	2.2	.	1	-3%
O=C(NC(=S)NCc1cccnc1)c1ccccc1[N+](=O)[O-]	-4	4.7	-5	0	-6%
CC1=NNC(=O)C1CC(=O)N/N=C/C(C)=C/c1ccccc1 (configuration not stated)	1	6.2	.	0	4%
O=C(CC1Sc2ccccc2NC1=O)OCc1cc(=O)oc2cc(O)ccc12 (configuration not stated)	8	-16	-12	8	-5%
CCn1cc(C(=O)N2CCN(c3ccc(OC)cc3)CC2)c(=O)c2cc(S(=O)(=O)N3CCCCC3)ccc21	4	-4.8	.	-1	8%
Cc1ccccc1NC(=S)Nc1cccc2cnccc12	4	6.7	.	-6	?
N/C(=N\OC(=O)c1ccc([N+](=O)[O-])cc1)c1ccccn1	-4	0.5	.	64	3%
COc1cc(/C=N/NC(=O)CN(Cc2ccco2)S(=O)(=O)c2ccccc2)ccc1O	-2	1.3	-16	-1	2%
N#CCCCSc1nnc(-c2ccc(Cl)cc2)n1-c1ccccc1	-4	-8.4	4	11	6%	Arbovirus inh repeat=-2
CCC1CCCCN1C(=O)COc1ccc2c(c1)OCO2 (configuration not stated)	.	-2.4	.	-9	.
Cc1ccc(/C=C/C(=O)O)cc1S(=O)(=O)NCCCC(=O)O	4	-1.3	-26	-4	-11%
Cc1cccc(C(=O)Nc2nnc(-c3ccncc3)o2)c1	4	-0.4	.	74	63%
COc1ccc(Nc2nc3ccccc3c(=O)s2)c(OC)c1	4	-0.2	-20	-25	0%
COc1ccc(CNC(=O)COC(=O)C2CCC(C(C)(C)C)CC2)cc1 (configuration not stated)	-4	2.6	-22	5	-4%
O=C(CN1CCOCC1)Nc1cccc(C(F)(F)F)c1	.	-2.2	.	-4	.
Cc1cccc(NC(=O)CSc2nnc(NC(=O)c3ccco3)s2)c1	25	0.1	.	-11	-6%
c1csc(CSc2nnc3sc4ccccc4n23)c1	3	1.0	-5	0	-7%
C/C(=N\NC(=O)c1ccc([N+](=O)[O-])cc1)c1c(O)cc(C)oc1=O	14	-3.5	.	31	-7%
CC(C)(C)C1CCC(=NNC(=O)CC(=O)NCc2ccccc2)CC1 (configuration not stated)	0	0.3	-35	8	-4%
CC(=O)Nc1ccccc1OC(C)C(=O)N1CC(C)CC(C)C1 (configuration not stated)	.	0.3	.	-11	.
CC(=O)N1CCc2cc(S(=O)(=O)NC(Cc3ccccc3)C(=O)NCCN3CCCCC3C)ccc21 (configuration not stated)	4	2.1	.	-2	-2%
Cc1ncc(CO)c2c1Oc1nc(-c3ccccc3)nc(SCC(=O)N3CCCCC3)c1C2	.	-4.2	.	-2	.
CN(Cc1nc(-c2cccs2)no1)CC1COCCO1 (configuration not stated)	1	1.6	.	-1	-8%
CCOc1ccccc1C(=O)NCC(=O)OCCCOC(=O)CNC(=O)c1ccccc1OCC	.	0.4	.	-7	.
OC1(c2ccccc2)C/C(=N\n2cnnc2)C=C1c1ccccc1 (configuration not stated)	5	0.2	-19	-1	-13%
COc1cccc(NC(=O)C2C3C=CC4(O3)C2C(=O)N(C2CC2)C4C(=O)NC2CCCCC2C)c1 (configuration not stated)	2	0.5	-26	-11	-6%
CCOc1cccc2cc(C(=O)NCc3ccccc3)c(=N)oc12	.	-1.0	.	-2	.
O=C1C=C(NNC(=O)c2ccccc2Br)CCC1	0	-3.1	-26	3	0%
O=C(Nc1ccccc1)ON=C1c2ccccc2-c2ccccc21	4	2.8	-29	-5	4%
N#CCCN(Cc1cccs1)C(=O)Nc1ccccc1	.	3.2	.	-1	-4%

Ordered by SMILES length (low to high): some entries from above.
SMILES	Arbovirus inh	RecA splice inh	YopH PTP inh	Mtb bLac sens	Mtb growth	others
c1csc(CSc2nnc3sc4ccccc4n23)c1	3	1.0	-5	0	-7%
Cc1ccc(/C=C/C(=O)O)cc1S(=O)(=O)NCCCC(=O)O	4	-1.3	-26	-4	-11%
CC(=O)N1CCc2cc(S(=O)(=O)NC(Cc3ccccc3)C(=O)NCCN3CCCCC3C)ccc21 (configuration not stated)	4	2.1	.	-2	-2%

(further entries)
SMILES	Arbovirus inh	RecA splice inh	YopH PTP inh	Mtb bLac sens	Mtb growth	others
CO/N=C/c1ccc(N2CCOCC2)c([N+](=O)[O-])c1	-4	-1.0	.	-6	-3%
C/C(NC(=O)c1ccccc1F)=C1\C(=O)C[C@@H]2[C@H]1C2(C)C	-10	6.1	-42	5	8%
O=[N+]([O-])c1ccc(-c2ccc(/C=N/Nc3nc(N4CCCCC4)nc(N4CCCCC4)n3)o2)cc1	-28	.	.	.	73%
CCCCN(CCCC)CCNC(=O)c1cn(C)c2ccc(S(=O)(=O)N(C)C3CCCCC3)cc2c1=O	.	0.5	.	1	.
Cc1ccc(CNCC(O)c2ccccc2)s1 (configuration not stated)	.	0.3	.	4	.
Cc1[nH]c(=S)c(C#N)c2c1CCCC2	1	-3.0	.	-2	4%
CCC(=O)Oc1ccc(C(=O)Nc2cccc(NC(=O)c3ccco3)c2)cc1	.	4.7	.	-5	.
O=C(Nc1cccc2nsnc12)c1ccc(-c2ccc(Br)cc2)o1	-6	18	-8	8	.
CC(c1ccccc1)c1nnc(NC(=O)c2ccc3c(c2)OCO3)s1 (configuration not stated)	.	-0.4	.	22	7%
CCc1noc(C)c1C(=O)OC(C)C(=O)Nc1ccccc1OC (configuration not stated)	.	1.3	.	0	.
O=C(O)Cc1c(C(=O)O)nnn1-c1cccc(C(F)(F)F)c1	0	0.3	.	-6	4%
CN(CCC#N)C(=O)CC(Cc1ccccc1)C1CCOC(C)(C)C1 (configuration not stated)	.	1.1	.	-7	1%
Nc1ncc(P(=S)(N2CCOCC2)N2CCOCC2)s1	2	-1.5	-5	-8	-5%
CCS(=O)(=O)c1ccc2oc(=O)c(/C=C(\O)c3ccc(Cl)cc3)nc2c1	10	6.0	.	13	-1%
CC(C)CC(=O)N1CCN(Cc2ccc(C(F)(F)F)cc2)CC1	.	0.1	.	-5	.
N=c1c2c(ncn1CCN1CCOCC1)Oc1cc(O)ccc1C2c1ccccc1 (configuration not stated)	.	-3.2	.	-3	-3%
Cc1cc(SCn2nnc3ccccc3c2=O)nc2ccccc12	-11	6.4	-22	-2	8%
Cc1nn(-c2ccccc2)c(Cl)c1C1C(C#N)=C(N)Oc2c1c(C)nn2-c1ccccc1 (configuration not stated)	-1	12	-17	1	0%
CCOC(=O)N1CCN(C(=O)Cn2ncc3c2-c2ccccc2OC3)CC1	0	-4.6	-28	-7	2%	Arbovirus inh repeat=-2
COc1ccc(N2C(=O)/C(=C/N(C)C)NC2=S)cc1	0	.	.	-7	2%
CCC(C)(C)NC(=O)C(c1ccccn1)N(C(=O)c1csnn1)c1ccc(C)cc1 (configuration not stated)	-11	-1.9	.	5	2%
CC(=O)Nc1ccc(NC(=O)Nc2ccccc2)cc1	.	2.6	.	2	.
O=C(NCCc1cn[nH]c1)C1CCC(=O)N(CCc2cccc(F)c2)C1 (configuration not stated)	.	-2.6	.	-2	.
COc1ccc2[nH]c3c(NCCCN4CCCC4=O)ncnc3c2c1	-6	2.2	-7	-8	-2%
NS(=O)(=O)c1ccc(CCNC(=O)c2ccc(CS(=O)(=O)c3ccc(Br)cc3)o2)cc1	.	-2.0	.	-5	.
New compounds follow:
SMILES	Arbovirus inh	RecA splice inh	YopH PTP inh	Mtb bLac sens	Mtb growth	others
O=C1CC(c2ccc3c(c2)OCCO3)Oc2ccc([N+](=O)[O-])cc21 (configuration not stated)	.	-1.7	.	8	.
C/C(N)=C(/C#N)C(=O)COC(=O)C1=NN(c2ccccc2)C(=O)CC1	.	-0.7	.	-4	.
Cc1noc(C)c1COc1cccc(C(=O)N2CCc3ccccc32)c1	-7	5.4	.	2	-3%
Cc1nc2sc(C(c3ccco3)N3CCc4ccccc4C3)c(O)n2n1 (configuration not stated)	.	9.1	-13	-7	0%
C=CCn1c(O)c(/C=C2\C=Nc3ccccc32)c(=O)[nH]c1=O	.	1.9	.	-1	-4%
Cc1ccc2c(c1)c1cccc3c1n2CCN3CCC(N)=O	-13	-16	-36	14	7%	Arbovirus inh repeat=0
Cc1c(NC(=O)CN2CCN(c3ccc(F)cc3)CC2)c(=O)n(-c2ccccc2)n1C	5	-1.6	.	-8	2%
O=C(Cn1c(-c2ccccn2)nc2ccccc21)NCCN1CCOCC1	7	0.6	-38	-6	-1%
CC(C)(C)c1ccc(C(=O)Nc2ccc(CC(=O)O)cc2)o1	19	-3.5	-29	0	-10%
CN(C)CC(C)(C)CNC(=O)CC1C(=O)NCCN1Cc1ccc(-c2ccccc2)cc1 (configuration not stated)	-13	1.7	.	-9	3%
COc1ccccc1CN1CC(C(=O)NCc2cc(C(C)C)no2)CCC1=O (configuration not stated)	.	0.3	.	5	.
COc1ccc(CCNC(=S)NC2CCN(Cc3ccccc3)CC2)cc1OC	5	-1.0	.	7	4%
O=C(OCC(=O)N1CCCC1)c1cccc(Br)c1	.	-0.3	.	6	.
Cc1cccc(NC(=O)Nc2cnccn2)c1C	.	-1.8	.	-11	.
O=c1cc(O)c2sc(Nc3cccc(C(F)(F)F)c3)nc2[nH]1	10	-7.4	-13	3	-3%
O=C(O)c1cccc(CN2C(=O)S/C(=C/c3ccccc3[N+](=O)[O-])C2=O)c1	.	20	.	2	-10%
O=C1/C(=C/c2ccccc2O)SC(=S)N1Cc1cccnc1	11	3.1	-12	7	11%
CCOC(=O)c1[nH]c(C)c(C(=O)OCCOc2cccc(C)c2)c1C	4	-5.1	-11	14	11%

2 successive compounds from above:
SMILES	Arbovirus inh	RecA splice inh	YopH PTP inh	Mtb bLac sens	Mtb growth	others
COc1ccc(CCNC(=S)NC2CCN(Cc3ccccc3)CC2)cc1OC	5	-1.0	.	7	4%
O=C(OCC(=O)N1CCCC1)c1cccc(Br)c1	.	-0.3	.	6	.
